Screening data (PubChem)
Beta apoptosis: inhibitors of cytokine-induced beta cell apoptosis, primary screen, luminescence | INS-1E cytokine-induced death, ATP luminescence, 48 h; percent of positive-control rescue, neutral wells zero | protection from apoptosis, % (no concentration beside the values) | 300,000 compounds, 0.8% hits | AID 435005, 2010;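 active means all replicates at 75% or more, or half of them and the mean; inconclusive means half reach 75% but not the mean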;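 further: 0% = cytokine-treated negative control wells and 100% = positive control rescue; higher means more ATP so stronger rescue from cytokine killing; wells of about 40 µL received 100 nL stock; the first replicate is given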
UCH37 inh: inhibitors of human UCH37 deubiquitinase, primary screen, biochemical, Ub-AMC cleavage, fluorescence; inhibition, % (no concentration beside the values); purified proteasome/UCH37; 330,000 compounds, 0.33% hits;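 active means mean of two replicates above 20%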;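 further: 0% = compound-free wells with enzyme and 100% = wells lacking proteasome; stock transfer was 100 nL into about 20 µL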
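assay system = human UCH37 enzyme supplied as purified proteasome complex | amount = proteasome at 0.15 nM in the dispensed enzyme solution | schedule = 30 min compound-proteasome preincubation then 25 min substrate reaction, room temperature | measured by = fluorescence, ex 355 nm, em 460 nm | benchmarks = no-proteasome wells (full inhibition) and compound-free wells (no inhibition)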
Calb FLC: C. albicans growth inhibition with fluconazole, primary screen, CaCi-2 strain, Alamar Blue fluorescence; growth inhibition, % (concentration not given with the values); 300,000 compounds, 0.57% hits; C. albicans CaCi-2 (fluconazole-resistant clinical isolate) + fluconazole, 48 h;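 active means most replicates above 75%; inconclusive means exactly half above 75%; inactive means most below 75%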;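 further: all wells also contain fluconazole at 8 µg/ml as a sub-toxic cotreatment; 0% = median of DMSO wells and 100% = median of geldanamycin control wells; wells of about 8 µL received 7.5 nL stock; the first replicate is given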
Beta2AR agonist: beta2AR agonists driving receptor internalization, primary screen, cell-based, FAP fluorogen, flow cytometry; Beta-2 adrenergic receptor (Homo sapiens), P07550; Am2.2-beta2AR cells; reference of the scale not given here; response, % (no concentration beside the values); 340,000 compounds, 0.43% hits; AID 504454, 2011;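 active means response above a set limit, near 3 SD of response in nonfluorescent compounds, cut at about 42% in these data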;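 further: stock transfer was 100 nL into about 11 µL; a reference agonist was the positive control; negative values mostly stem from fluorescent compounds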
LANA-H2A inh: blockers of LANA interaction with H2A/H2B – biochemical, FP readout, HTS, primary screen | Protein LANA1 (Human herpesvirus 8 type P (isolate GK18)), Q9QR71 | cell-free LANA-H2A/H2B peptide, fluorescence polarization | inhibition, % (no concentration beside the values) | 320,000 compounds, 0.6% hits | AID 2629, 2010; in the data active means inhibition mostly above about 10%, no sharp cut-off; inactive means mostly below about 6.7%;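 further: stock transfer was 7.5 nL into about 10 µL; 0% = median of vehicle wells and 100% = median of positive control wells; one replicate is shown; the record names a cut of 25% in any replicate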
Target sequence (Q9QR71 whole entry, looked up): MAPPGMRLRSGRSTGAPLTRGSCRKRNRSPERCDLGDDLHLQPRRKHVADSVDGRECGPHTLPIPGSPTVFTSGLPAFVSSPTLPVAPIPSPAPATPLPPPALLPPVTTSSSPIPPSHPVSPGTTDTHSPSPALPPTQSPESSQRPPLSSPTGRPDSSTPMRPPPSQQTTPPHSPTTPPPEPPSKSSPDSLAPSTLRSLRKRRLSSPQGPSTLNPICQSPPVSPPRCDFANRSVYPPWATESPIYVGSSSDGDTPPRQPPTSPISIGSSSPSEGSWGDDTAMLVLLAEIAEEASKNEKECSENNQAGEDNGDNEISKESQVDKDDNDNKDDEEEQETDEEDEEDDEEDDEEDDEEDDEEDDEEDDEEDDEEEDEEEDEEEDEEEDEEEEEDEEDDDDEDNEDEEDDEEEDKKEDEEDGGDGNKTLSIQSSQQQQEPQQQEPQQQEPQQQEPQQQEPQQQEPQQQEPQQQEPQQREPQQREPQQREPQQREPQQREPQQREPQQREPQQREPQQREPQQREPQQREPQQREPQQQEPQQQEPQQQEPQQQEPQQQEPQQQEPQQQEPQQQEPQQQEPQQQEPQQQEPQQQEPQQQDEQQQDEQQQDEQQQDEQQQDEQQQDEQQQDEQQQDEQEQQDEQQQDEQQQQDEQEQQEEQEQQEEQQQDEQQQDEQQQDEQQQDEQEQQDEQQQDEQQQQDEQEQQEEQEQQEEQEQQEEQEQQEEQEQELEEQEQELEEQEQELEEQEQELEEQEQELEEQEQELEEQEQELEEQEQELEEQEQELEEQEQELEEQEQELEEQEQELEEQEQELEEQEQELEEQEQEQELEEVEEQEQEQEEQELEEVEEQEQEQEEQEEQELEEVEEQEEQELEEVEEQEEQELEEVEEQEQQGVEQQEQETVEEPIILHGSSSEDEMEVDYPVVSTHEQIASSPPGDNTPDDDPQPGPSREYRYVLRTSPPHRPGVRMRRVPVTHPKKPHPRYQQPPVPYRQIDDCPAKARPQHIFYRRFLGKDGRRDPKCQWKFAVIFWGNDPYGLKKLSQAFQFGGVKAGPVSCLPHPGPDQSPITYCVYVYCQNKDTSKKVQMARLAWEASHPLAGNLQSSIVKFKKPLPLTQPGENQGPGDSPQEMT
T cruzi inh: inhibitors of intracellular T. cruzi growth, primary screen, luminescence, NIH3T3 host cells. T. cruzi beta-gal in NIH3T3, 90 h. inhibition, % (test concentration not listed). 300,000 compounds, 1.4% hits;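 active means mean inhibition across valid replicates above about 55%, limit read from the data; inconclusive means mean below that limit but half or more replicates reach it; inactive means mean below it, under half of replicates reach it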;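 further: signal also drops with host cell toxicity which is not excluded here; 0% = plate median of DMSO wells and 100% = zero luminescence signal; higher percent means less beta-gal luminescence so fewer parasites; stock transfer was 50 nL into about 50 µL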
RanGTP-Imp inh: inhibitors of RanGTP-importin-beta interaction, primary screen, biochemical, FRET, CFP-Ran, YFP-importin-beta, homogeneous. inhibition, % (test concentration not listed). 300,000 compounds, 1.1% hits. Ran GTPase (GTP-bound) - importin-beta complex. cell-free CFP-Ran/YFP-importin-beta FRET ratio;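 active means most replicates above 15%; inconclusive means exactly half above 15%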;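 further: 0% = DMSO wells and 100% = Ran loaded with GDP instead of GTP; wells of about 40 µL received 100 nL stock; the first replicate is given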
Bfl-1 A1 inh: caspase 3/7 activation in MEF A1-2A-BIM cells, primary screen, A1 inhibitor project, cell-based, luminescence, HTS; Caspase-Glo 3/7 luminescence, 3 h; percent of clofoctol response, vehicle zero; caspase activation, % (no concentration beside the values); 330,000 compounds, 0.066% hits;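 active means over half of replicate activation scores above 10%, or exactly half above 10 with the replicate mean above 10; inconclusive means replicate mean below 10 yet half the replicates above 10; inactive means over half of replicates below 10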;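 further: wells of about 30 µL received 50 nL stock; many hits fall short of the cut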
Starred values were filed as active, the others as inactive; ? = inconclusive; nt = not tested or not shown.

SMILES	Beta apoptosis	UCH37 inh	Calb FLC	Beta2AR agonist	LANA-H2A inh	T cruzi inh	RanGTP-Imp inh	Bfl-1 A1 inh
COc1ccc(NC(=O)C2CCCN(S(=O)(=O)c3ccc(-n4cnnn4)cc3)C2)cc1 (stereo unspecified)	-5	-0.1	-5	17	-4.2	9	0.1	-0.3
Cc1cc(C)nc(SCc2n[nH]c(=S)n2C)n1	-1	-0.3	-4	0	-3.4	-6	0.5	-0.1
COc1ccc(S(=O)(=O)N2CCCC(C(=O)NCCN3CCOCC3)C2)cc1C (stereo unspecified)	-5	-1.6	-36	-1	0.4	4	0.8	-0.5
COc1ccc(NS(=O)(=O)c2cc(NC(=O)CCNC(C)=O)ccc2N2CCCCC2)cc1	-2	6.5	nt	3	4.7	nt	nt	-0.7
CCSc1nnc(NC(=O)[C@@H](NC(=O)c2cc(OC)cc(OC)c2)C(C)C)s1	-2	4.6	39	-1	-3.9	1	?	-1.0
CC(=O)c1cn(Cc2ccccc2)c(=O)[nH]c1=O	3	3.9	-4	-2	-2.5	0	-1.0	-0.3
Cc1ccc(SCCC(=O)NCCSCc2ccco2)cc1	-3	3.5	-25	-4	-7.0	-3	-4.4	0.5
COc1ccc2c(c1)CC/C2=N\OC(=O)c1ccccc1OC	1	nt	-2	-3	1.2	-2	-3.9	-2.2
Cc1cccc(-c2noc(CN(C(=O)C34CC5CC(CC(C5)C3)C4)C(C)C)n2)c1	-10	2.5	-6	-4	-0.8	15	-2.1	-0.5
C#CCOCCOCCOCCNc1nc(N2CCN(C(=O)C([C@@H](C)O)n3cc([C@@H](N)CCCCN)nn3)CC2)nc(N2CCN(C(=O)[C@H](CCCCN)n3cc(CN)nn3)CC2)n1 (stereo partly specified)	0	4.1	nt	2	0.7	nt	nt	0.8
CCc1noc(C)c1C(=O)N1CCCSC1=Nc1ccccc1Cl	4	2.9	2	8	-2.1	1	5.0	0.0
Cc1ccc(OCC(=O)O/N=C(\N)c2cccnc2)cc1	-4	0.7	-8	3	-9.3	11	4.8	0.1
CC(C)(C)C(=O)Nc1ccccc1C(=O)NCc1cccnc1	-3	-1.1	-2	-1	-7.4	14	-1.0	-0.4
O=C(CSc1nc2ccccc2o1)N1CCN(c2ccc(Cl)cc2)CC1	-3	2.0	8	8	1.4	-7	0.8	0.2
COC(=O)c1ccc(CN(c2ccc(C)cc2)S(=O)(=O)c2ccc3c(c2)OCCO3)o1	0	0.4	-18	15	4.6	-17	-1.2	0.2
CCCN1C=CC(=C2C(=O)c3ccccc3C2=O)C=C1	63	15	-13	1	-6.2	-3	-3.2	-6.4
O=C(NCCNS(=O)(=O)c1ccccc1)N1CCOCC1	-5	2.4	6	-10	2.2	1	1.8	0.2
O=C(CSc1ccc(-c2ccco2)nn1)Nc1ccccc1F	-8	-1.3	4	-5	0.0	-7	1.7	1.0
COc1ccc(OCC(=O)N2N=C(C)CC2(O)C(F)(F)F)cc1 (stereo unspecified)	1	1.6	-3	-16	2.0	-11	-1.1	0.3
COC(=O)c1sccc1NC(=S)N1CCN(c2ccccc2)CC1	-4	6.7	18	0	0.4	6	-0.6	1.8
CN(O)/C=c1/ccc2c(n1)C(=O)C=CC=2	4	8.5	-10	-5	-4.6	-14	2.4	-0.7
COc1cc(/C=N/NC(=O)Cc2nnc(NC(=O)c3ccccc3)s2)ccc1O	7	nt	nt	-4	-2.6	-13	0.8	0.4
Cc1cccc(-n2ncc3c(NCCN4CCOCC4)ncnc32)c1	-6	4.4	-4	-9	6.7	-10	5.8	0.1
Cc1noc2ncnc(Oc3ccccc3Cl)c12	-1	-0.8	21	0	-1.5	-3	3.5	0.3
Cc1cccc(-n2c(SCC(=O)N3CCCC3)nc3n[nH]c(C)c3c2=N)c1	0	-72	-10	0	1.1	-4	nt	0.2
C/C(=N/NS(=O)(=O)c1ccc(Br)cc1)c1ccc(C)o1	-2	nt	41	11	0.9	-9	-4.4	0.5
O=C(CSc1cc([N+](=O)[O-])cc(S(=O)(=O)Cc2ccccc2)c1)NC1CC1	-2	6.2	-1	-9	5.6	37	2.5	0.0
S=C(Nc1ccccc1Cl)N(Cc1ccccc1)Cc1cccnc1	2	0.4	-1	-2	1.1	62*	-1.0	-0.4
O=C(CSc1nnc(NC(=O)c2c(F)cccc2F)s1)NC1CCCC1	nt	1.4	-8	3	-4.1	-6	0.0	-0.1
FC(F)Sc1ccc(NC(=S)NC2CCC(NC(=S)Nc3ccc(SC(F)F)cc3)CC2)cc1 (stereo unspecified)	2	1.1	-12	0	-1.0	-3	-2.4	-0.3
O=C(O)CSc1cccnc1Sc1ccc(Cl)cc1	-12	1.5	3	16	0.2	-17	0.5	1.6
O=C(NC(=S)Nc1ccc(CN2CCOCC2)cc1)c1ccc([N+](=O)[O-])cc1	5	-2.8	-10	1	2.4	-5	-0.6	0.1
C=CC(=O)Nc1ccc(Nc2nc(NC3CCC(N(C)C)CC3)nc3c2ncn3C(C)C)cc1 (stereo unspecified)	43	4.7	nt	-1	-2.8	nt	nt	0.5
COc1ccccc1CNC(=O)c1csc2c1CCCC2	-13	-1.4	-19	-14	2.4	18	4.0	-0.1
COC(=O)/C(C#N)=C1/C=Cc2ccccc2N1C	nt	8.6	19	-25	1.6	-13	0.2	0.0
CC(=O)c1ccc(S(=O)(=O)N(C)CCCC(=O)N(C)Cc2ccccc2F)cc1	nt	1.0	-3	-2	-4.0	5	0.9	0.2
O=C(NCCc1ccccc1)c1ccc(CS(=O)Cc2ccc(Cl)cc2)o1 (stereo unspecified)	4	1.8	2	0	-0.2	0	-1.9	1.2
O=C(c1cc2n(n1)C(C(F)(F)F)CC(c1ccco1)N2)N1CCN(c2ccccn2)CC1 (stereo unspecified)	-7	-3.6	?	-6	2.9	7	0.6	0.1
CN(Cc1ccccn1)Cc1cn(Cc2ccccc2)nc1-c1ccc2c(c1)OCO2	-2	1.0	-13	13	-4.3	7	-2.7	1.2
COc1ccc(C(=O)NC(=S)Nc2ccc(NC(=O)c3ccco3)cc2)cc1[N+](=O)[O-]	4	nt	3	4	8.8	-12	-2.6	1.0
O=C(Nc1ccc(C(=O)N2CCCC2)cc1)c1ccccc1F	9	1.4	-4	-4	1.7	-2	?	-0.7
COc1ccc(Cn2c(=S)[nH]c3cc(C(=O)N4CCN(c5ccccc5)CC4)ccc3c2=O)cc1	-1	5.2	-5	9	-2.4	6	4.7	-0.3
CSc1nnc(-c2sccc2OCc2ccc(C)cc2)n1C	-4	6.5	19	-8	1.3	-3	5.3	1.4
Cc1cc(F)ccc1S(=O)(=O)Nc1ncnc2sccc12	nt	3.9	8	3	1.4	-12	7.0	0.8
CC(C)(C)OC(=O)N1CCC(NC(=O)c2ncn(Cc3ccccc3)c2C(=O)NC2CCN(C(=O)OC(C)(C)C)CC2)CC1	7	7.2	nt	21	2.7	nt	nt	-0.2
Cc1ccc(NC(=O)CN(C)C(=O)COC(=O)c2oc3ccccc3c2C)cc1	-5	0.3	nt	7	-1.8	nt	nt	-0.4
COc1cccc(CNC(=O)C2CCC(CNc3nc(=S)[nH]c4ccccc34)CC2)c1 (stereo unspecified)	1	4.5	0	-2	nt	12	0.4	-0.4
COc1ccccc1CC(=O)NNC(=O)CN(C)S(=O)(=O)c1ccc(Cl)cc1	-8	5.3	1	13	nt	-11	2.2	-1.0
CC(=O)Nc1ccc(/C(C)=N/NC(=O)CN(c2ccccc2Br)S(C)(=O)=O)cc1	4	nt	10	-8	2.8	-11	?	0.0
O=[N+]([O-])c1ccc(NC(=S)N2CCOCC2)cc1	-4	4.2	-32	-2	3.7	-8	-3.8	-0.4
COc1ccc(N(CC(=O)NCCSc2ccccn2)S(C)(=O)=O)cc1Cl	3	3.3	17	-4	0.7	2	-0.5	0.9
CC(=O)c1cccc(NC(=O)c2ccco2)c1	0	1.2	-18	-12	-2.6	-13	-1.5	0.9
O=C(Nc1cnccn1)Nc1ccccc1F	-7	0.2	4	1	6.1	7	4.8	-0.2
CCOc1ccc(NC(=O)CC(C)S(=O)(=O)c2ccc3c(c2)NC(=O)CO3)cc1 (stereo unspecified)	-3	3.4	0	-2	0.7	-5	2.7	-0.4
CC(NC(=O)CNC(=O)c1ccco1)c1ccc(S(N)(=O)=O)cc1 (stereo unspecified)	-8	3.2	-8	15	-0.1	-7	4.2	1.0
CCOC(=O)c1c(C)[nH]c(C(=O)N2CCN(c3ccc(OC)cc3)CC2)c1C	-2	1.1	7	-8	-1.9	-17	-0.8	0.4
COc1ccc(NC(=O)c2cccc(N3C(=O)C4C5C=CC(C5)C4C3=O)c2)cc1 (stereo unspecified)	9	4.6	nt	1	-1.5	-7	nt	0.2
CC1CCC(NC(=O)C2CC(=O)N(c3ccc(Cl)cc3)C2)CC1 (stereo unspecified)	2	0.1	18	-6	-3.6	-42	2.0	-0.1
COc1ccc(OCc2cccc(C(=O)N3CCCC3)c2)cc1	-3	5.2	6	4	-2.9	4	-4.4	-0.8
Cc1cc(C(=O)Cn2cnc3cc([N+](=O)[O-])ccc3c2=O)c(C)n1CC1CCCO1 (stereo unspecified)	-3	6.1	45	-5	-1.8	15	-2.6	0.2
More compounds follow:
SMILES	Beta apoptosis	UCH37 inh	Calb FLC	Beta2AR agonist	LANA-H2A inh	T cruzi inh	RanGTP-Imp inh	Bfl-1 A1 inh
COc1ccc(/C=C/C(=O)OCC(=O)NC2CCCCCCC2)cc1	-3	-3.3	nt	-6	-1.3	nt	nt	-0.7
CCN(c1ccccc1)S(=O)(=O)c1ccc(Cl)c(NC(=O)COC(=O)c2cc(O)c3ccccc3c2O)c1	79*	nt	1	nt	-7.7	6	1.1	0.4
O=C(Nc1cccc2ccccc12)c1onc2c1CCCC2	4	-0.9	-6	3	-0.2	0	-0.7	0.4
O=C(NCC(=O)N(Cc1ccccc1)C(C(=O)NC1CCCCC1)c1ccco1)c1ccco1 (stereo unspecified)	3	1.0	-6	-3	17	5	0.6	0.5
COc1ccc(C(CNC(=O)c2cncc(Br)c2)N(C)C)cc1 (stereo unspecified)	-6	1.0	-1	-12	-4.9	-3	?	0.2
CCOC(=O)CSC1=C(C#N)C(c2ccc(OC)cc2)C2=C(CC(C)(C)CC2=O)N1 (stereo unspecified)	-5	-7.7	9	-12	-1.8	13	-0.7	-0.7
C=CCc1ccc(OCCOCCOc2ccc(C)cc2[N+](=O)[O-])c(OC)c1	-10	0.4	1	-2	0.2	10	0.9	-1.1
O=C(CSc1nnnn1-c1ccc(Cl)cc1)NNC(=O)c1ccc([N+](=O)[O-])cc1	-3	2.3	-1	-4	0.8	-4	-1.7	0.2
COc1ccccc1N1CCN(C(=O)CSc2nc3ccccc3[nH]2)CC1	-1	0.3	6	0	2.7	-5	2.2	-0.1
